StopGo RLuc: lowers the Renilla signal of an FMDV 2A StopGo reporter | HEK cells with a luciferase reporter of 2A StopGo recoding | Potency, µM (series often up to 57.5 µM), without a hit: top-dose signal change, negative = less light | 120,000 compounds, 0.32% hits; active means well fitted falling curve with a large enough effect; inconclusive means small, poorly fitted or top-dose-only effect; inactive means no such curve, though single readings can be large or run the other way; further: nearly all actives have a fitted effect of over 55% in size; overnight with compound
StopGo FLuc: lowers the firefly signal of an FMDV 2A StopGo reporter; AID 1745856; 120,000 compounds, 0.23% hits; Potency, µM (top dose mostly 57.5 µM), inactives show at the top dose signal change, negative = less light; HEK cells with a luciferase reporter of 2A StopGo recoding; active = well fitted falling curve with a large enough effect; inconclusive = small, poorly fitted or top-dose-only effect; inactive = no such curve, though single readings can be large or run the other way; further: nearly all actives have a fitted effect of over 60% in size; overnight with compound
* = called active by the depositor; ? = inconclusive; & = joins results of further samples; [ ] = remark or other dose. On the % scale 0 is the no-effect control and ±100 the full control effect; potency means the concentration at half of the fitted maximal effect.

SMILES | StopGo RLuc | StopGo FLuc
O=S(=O)(c1ccc(Br)cc1)c1nnn2c1nc(NCCc1ccccc1)c1sccc12 | -6% | -14%
CCOC(=O)Cn1c(=O)oc2cc(S(=O)(=O)Nc3cc(OC)cc(OC)c3)ccc21 | 7% | 8%
Cc1ccc(C)c(NS(=O)(=O)c2ccc3oc(=O)c4ncn(C)c4c3c2)c1 | 3% | -11%
C=CCc1ccccc1OCCOc1ccccc1/C=C(/C#N)C(N)=O | 9% | 36%[activator]
CC(COc1ccc(CC#N)cc1)CN1CCC(C(O)(c2ccccc2)c2ccccc2)CC1 (stereo not given) | -2% | -14%
CC(C)(C)c1ccc(OCCn2cc(C(=O)C(F)(F)F)c3cc(Br)ccc32)cc1 | 4% | 10%
O=C(OCC1C(COC(=O)c2ccco2)C1(Cl)Cl)c1ccco1 (stereo not given) | 11% | 3%
CCCOc1cccc(C(=O)Nc2cccc(-c3nc4ncccc4o3)c2C)c1 | 2%&11% | 8%&17%
Cc1cccc(Nc2nc(N)c(C(=O)c3cc(C)ccc3C)s2)c1 | -29% | -17%
CC(C)CCNC(=O)c1cccc(-n2cnc3cccnc32)c1 | 4% | 0%
CC[C@@H](CO)NCCN[C@@H](CC)CO | -8% | -14%
CC1CCC(Nc2nc3c(-c4ccc(Cl)cc4)nnn3c3ccccc23)CC1 (stereo not given) | -5% | -16%
CC(C)(C)C(=O)NC(Nc1ccc2ccccc2c1)C(Cl)(Cl)Cl (stereo not given) | 24% | 0%
Cc1ccc(NC(=O)/C(C#N)=C\c2ccccc2OC(F)F)cc1 | ? | -6%
COc1ccccc1C(=O)Nc1ccccc1C(=O)OCc1cc(=O)n2c(C)csc2n1 | 3% | 6%
Cc1cc2ccccc2n1CCNC(=O)c1ccccc1 | -2% | 51%[activator]
N#C/C(=C\c1ccccc1F)c1nc2ccccc2c(=O)[nH]1 | 35%[activator] | 57%[activator]
CCN(Cc1ccc(OC)c(F)c1)C(=O)c1n[nH]c(=O)c2ccccc12 | 1% | -1%
N#Cc1nc(COc2ccc3c(c2)OCO3)oc1N1CCC(C(N)=O)CC1 | 8% | 47%[activator]
NCCCn1c2ccccc2c2ccccc21 | 3% | -3%
COc1ccc(C(=O)CC2(O)C(=O)N(Cc3ccccc3Cl)c3ccccc32)cc1 (stereo not given) | 102%[activator] | 16%
CC(=O)OCC(COC(C)=O)OC(C)=O | -9% | -21%
CCOc1ccc(CCNC(=O)CCn2c(=O)c3cccn3c3ccc(F)cc32)cc1 | -1% | -12%
CNC(=O)C1CCC(Cn2c(=O)c3sccc3n(CC(=O)NCc3ccc(C)cc3)c2=O)CC1 (stereo not given) | 0%&3% | 0%&4%
COc1cccc(Oc2coc3cc(O)ccc3c2=O)c1 | 6% | 74%[activator]
O=C(O)CN(/C=C/C(=O)C(F)(F)F)CC(=O)O | -3% | 3%
O=C(NCc1cccnc1)C1(c2cccc(C(F)(F)F)c2)CCOCC1 | -1% | 3%
Cc1ccc(C)c(NC(=O)c2ccc3ncsc3c2)c1 | 1% | 39%[activator]
CCC(C)c1ccc(NC(=O)COc2ncnc3ccccc23)cc1 (stereo not given) | 1% | 0%
COc1ccc(CNC(=O)COc2ccc3c(C(F)(F)F)cc(=O)oc3c2)cc1 | 5% | 5%
Cc1cc(C)n(C(C)CC(=O)Nc2ccc(C)c(N(C)C)c2)n1 (stereo not given) | -13% | -16%
CCOC(=O)c1c(S(=O)(=O)N2CCCC(C(=O)Nc3cc(C)ccc3OC)C2)c(C)n(C)c1C (stereo not given) | -9% | -15%
Cn1cnc2c1c(=O)n(CCCN1CCCCCC1)c(=O)n2C | -16% | -14%
O=C(NCCc1ccccc1)c1ccc2c(c1)N(Cc1ccc(Cl)cc1)C(=O)CS2 | -6% | ?
Cc1cccc(NC(=O)N2CCN(C)c3ncccc32)c1C | -12% | -8%
Cc1ccc(C(=O)NCC(c2ccc3c(c2)OCO3)N2CCOCC2)cc1 (stereo not given) | 56%[activator] | 56%[activator]
O=C(CN1C(=O)CC(c2ccco2)Sc2ccccc21)Nc1ccc(C(F)(F)F)cc1 (stereo not given) | -7% | 2%
COc1cc(OC)c2c(C)c(CC(=O)Nc3cccc(F)c3)c(=O)oc2c1 | -4% | -4%
O=C(c1ccccc1Oc1ccccc1)N1CCC(c2nc3ccccc3o2)CC1 | ? | ?
Cc1nn(CCC(=O)Nc2ccccc2Cl)c(=O)c(C#N)c1C | -12% | -7%
COc1cccc(NC(=O)c2sc3nc(C)c(C(=O)Nc4ccc(Cl)cc4)c(-c4ccc(Br)cc4)c3c2N)c1 | 2% | 3%
CCNC(=O)c1cccc(NC(=O)c2cc(=O)c3ccccc3o2)c1 | 34%[activator] | 0%
O=C(Nc1cccnc1Oc1ccccc1)c1cccc(Cl)c1Cl | 4% | -6%
Cc1ccc(C)c(N2N=C(C(=O)Nc3cccc(S(=O)(=O)N4CCCCC4)c3)CCC2=O)c1 | -2% | -6%
Cc1ccc(-n2ncc(C(=O)NCc3cccs3)c2C2CCN(C(=O)OC(C)(C)C)CC2)cc1C | 55%[activator] | -11%
CCc1ccc(NC(=O)N2CC=C(c3c[nH]c4ccccc34)CC2)cc1 | 0% | 0%
CN1C[C@]2(C=C3CCCCC3n3c(=O)n(-c4ccccc4)c(=O)n32)N=C1NC(=O)c1ccccc1 (stereo not given in full) | 22% | 12%
Cc1cccc(C)c1NC(=O)CCc1c[nH]c2ccccc12 | -3% | 5%
CC(CCc1ccccc1)NC(=O)CCC(=O)NC12CC3CC(CC(C3)C1)C2 (stereo not given) | 7% | 5%
COC(=O)c1ccc(NC(=O)CCc2c(C)nc3cc(-c4cccc(F)c4)nn3c2C)cc1 | -7% | ?
O=C(Nc1nnc(C(F)(F)F)s1)C1CCN(C(=O)c2ccccc2Cl)CC1 | 5% | 17%
CC(C(=O)Nc1ccc(F)cc1)N(C)Cc1ccc2c(c1)OCCO2 (stereo not given) | -2% | 9%
O=C(O)c1cccc(Br)c1 | 11% | 16%
COCCCn1c(=N)c(C(=O)NCc2cccnc2)cc2c(=O)n3cc(C)ccc3nc21 | -2% | -5%
CC(Oc1ccc(F)c(F)c1)C(=O)NCCC(=O)N1CCCCC1 (stereo not given) | -12% | -4%
Cc1ccccc1Cn1cc(CN2[C@H](Cc3ccccc3)COc3cc(Br)ccc3S2(=O)=O)nn1 | 16% | -6%
COc1ccc(N(Cc2ccccc2)C(=O)c2nc(SC)ncc2Cl)cc1 | ? | ?
CCC(CC)COC(=O)C(C#N)c1nc2ccccc2nc1N1CCN(CC)CC1 (stereo not given) | -13% | -12%
CCOc1ccccc1NC(=O)Cn1ncc2c([nH]c3ccccc32)c1=O | 10% | -2%
CCOc1ccc2nc(NC(=O)c3cc(=O)c4cc(C)cc(C)c4o3)sc2c1 | -10% | -8%
Additional entries
SMILES | StopGo RLuc | StopGo FLuc
Cc1cc(C)cc(-n2c(SCC(=O)Nc3ccccc3)nc3c(oc4ccccc43)c2=O)c1 | -4% | -15%
O=C1CCCC2=C1C(c1ccccc1)C=C1c3cc4c(cc3CCN12)OCCCO4 (stereo not given) | -10% | 3%
Cc1ccc(S(=O)(=O)c2nc(-c3ccccc3)oc2N2CCN(c3ccccc3)CC2)cc1 | -7% | -17%
Cc1cc(C)cc(NC(=S)NCCc2ccccc2)c1 | 155%[activator] | 57%[activator]
CC(C)(CNC(=O)NC1CCCC1)C(N)=O | 2% | 1%
COC(=O)c1c(-c2ccc(Cl)cc2)noc1N1CCN(c2ccccc2F)CC1 | 92%[activator] | 39%[activator]
COc1cc(-c2nnc3n2C(C)(C)Cc2cc(C)c(C)cc2-3)cc(OC)c1OC | 13% | 13%
COC(C)(C)CCCC(C)C/C=C/C(C)=C/C(=O)OC(C)C (stereo not given) | 3% | -7%[11.5 µM]
S=c1[nH]nc(-c2n[nH]c3c2CCC3)n1/N=C/c1cccc2ccccc12 | 18% | 21%
Cc1nn(CCC(=O)Nc2c(Cl)cccc2Cl)c(=O)c(C#N)c1C | -12% | -7%
Cc1c(C(=O)NC2=NCCS2)oc2c(Cl)cccc12 | 22% | 189%[activator]
CSc1ncc(Cl)c(C(=O)Nc2cc(C(F)(F)F)ccc2Cl)n1 | -5% | -17%
CCOC(=O)c1c(C)[nH]c(C)c1S(=O)(=O)N1CCCC(C(=O)Nc2ccc(C)cn2)C1 (stereo not given) | 13% | 27%
CC(=O)Nc1nnc(SCc2cc(=O)c3cccc(C)c3[nH]2)s1 | -7% | -17%
O=S(=O)(Nc1ccc(-c2cn3ccsc3n2)cc1)c1cccs1 | 98%[activator] | 129%[activator]
Cc1ccc(-n2c3c(c(=O)[nH]c2=O)C(C(F)(F)F)(C(F)(F)F)N=C(c2ccncc2)N3)cc1 | -12% | -8%
COc1cc(C2CC(=O)NC(SCC(=O)NCc3ccccc3)=C2C#N)ccc1O (stereo not given) | 10% | 10%
CC(C)(C)C1CCc2nc(NC(=O)Cc3ccccc3)sc2C1 (stereo not given) | 27% | 202%[activator]
O=C(NC1CCN(Cc2ccccc2)CC1)c1cc2ccccc2[nH]1 | -18% | 70%[activator]
CCOc1cc2c(cc1CNC(=O)c1ccc(F)cc1Br)OC(C)C2 (stereo not given) | 10% | 0%
CCc1cccc(C)c1NC(=O)c1cc(=O)c2ccccc2o1 | 1% | 7%
S=C(NCc1ccccc1)Nc1ccc(Sc2ccc(Br)cc2)cc1 | -7%[1.06 µM] | -18%
CCCCn1c(=O)n(CC(O)COc2ccc(C(C)(C)C)cc2)c(=O)c2c1ncn2CCOC (stereo not given) | 0% | 25%
CCOC(=O)c1c(C)[nH]c(C)c1S(=O)(=O)NCC(=O)N1CCN(c2cc(Cl)ccc2C)CC1 | 17% | 23%

Whole records from above:
CCOC(=O)c1c(C)[nH]c(C)c1S(=O)(=O)N1CCCC(C(=O)Nc2ccc(C)cn2)C1 (stereo not given) as listed: StopGo RLuc = 13%; StopGo FLuc = 27%
CCc1cccc(C)c1NC(=O)c1cc(=O)c2ccccc2o1 as listed: StopGo RLuc = 1%; StopGo FLuc = 7%

(next part)
SMILES | StopGo RLuc | StopGo FLuc
CCc1ccc(OCC(O)Cn2cnc3cc(Cl)ccc3c2=O)cc1 (stereo not given) | 1% | 28%
Cc1ccc(Cl)cc1NC(=O)CCCn1c(=O)c2cccn2c2ccccc21 | 10% | -10%
Cc1nn(S(=O)(=O)c2ccc(C(C)C)cc2)c(C)c1S(=O)(=O)N1CCCCC1 | 7% | -9%
Cn1c(=O)c2c(nc(Cl)n2CCCC#N)n(C)c1=O | -8% | 8%

Entries listed so far that have fluorine (18):
SMILES | StopGo RLuc | StopGo FLuc
CC(C)(C)c1ccc(OCCn2cc(C(=O)C(F)(F)F)c3cc(Br)ccc32)cc1 | 4% | 10%
Cc1ccc(NC(=O)/C(C#N)=C\c2ccccc2OC(F)F)cc1 | ? | -6%
N#C/C(=C\c1ccccc1F)c1nc2ccccc2c(=O)[nH]1 | 35%[activator] | 57%[activator]
CCN(Cc1ccc(OC)c(F)c1)C(=O)c1n[nH]c(=O)c2ccccc12 | 1% | -1%
CCOc1ccc(CCNC(=O)CCn2c(=O)c3cccn3c3ccc(F)cc32)cc1 | -1% | -12%
O=C(O)CN(/C=C/C(=O)C(F)(F)F)CC(=O)O | -3% | 3%
O=C(NCc1cccnc1)C1(c2cccc(C(F)(F)F)c2)CCOCC1 | -1% | 3%
COc1ccc(CNC(=O)COc2ccc3c(C(F)(F)F)cc(=O)oc3c2)cc1 | 5% | 5%
O=C(CN1C(=O)CC(c2ccco2)Sc2ccccc21)Nc1ccc(C(F)(F)F)cc1 (stereo not given) | -7% | 2%
COc1cc(OC)c2c(C)c(CC(=O)Nc3cccc(F)c3)c(=O)oc2c1 | -4% | -4%
COC(=O)c1ccc(NC(=O)CCc2c(C)nc3cc(-c4cccc(F)c4)nn3c2C)cc1 | -7% | ?
O=C(Nc1nnc(C(F)(F)F)s1)C1CCN(C(=O)c2ccccc2Cl)CC1 | 5% | 17%
CC(C(=O)Nc1ccc(F)cc1)N(C)Cc1ccc2c(c1)OCCO2 (stereo not given) | -2% | 9%
CC(Oc1ccc(F)c(F)c1)C(=O)NCCC(=O)N1CCCCC1 (stereo not given) | -12% | -4%
COC(=O)c1c(-c2ccc(Cl)cc2)noc1N1CCN(c2ccccc2F)CC1 | 92%[activator] | 39%[activator]
CSc1ncc(Cl)c(C(=O)Nc2cc(C(F)(F)F)ccc2Cl)n1 | -5% | -17%
Cc1ccc(-n2c3c(c(=O)[nH]c2=O)C(C(F)(F)F)(C(F)(F)F)N=C(c2ccncc2)N3)cc1 | -12% | -8%
CCOc1cc2c(cc1CNC(=O)c1ccc(F)cc1Br)OC(C)C2 (stereo not given) | 10% | 0%

Bioassay records as filed in PubChem BioAssay.
